Source: PubChem (National Center for Advancing Translational Sciences (NCATS))
VDR inhibitor: Inhibitors of the vitamin D receptor (VDR): qHTS. AID 504847, 2011. Potency, µM, without a hit: max response, negative = inhibition, most hits filed as inhibitors. Vitamin D3 receptor (Homo sapiens), P11473. hit rate 0.93% among 400,000. VDR-SRC2-3 peptide fluorescence polarization, 2 h; active = well fitted inhibition curve with a large enough effect; inconclusive = small, poorly fitted or top-dose-only effect, or another doubt; inactive = no such curve, though single readings can be large or run the other way; note: series mostly up to about 120 µM
Target sequence (P11473 whole entry, looked up): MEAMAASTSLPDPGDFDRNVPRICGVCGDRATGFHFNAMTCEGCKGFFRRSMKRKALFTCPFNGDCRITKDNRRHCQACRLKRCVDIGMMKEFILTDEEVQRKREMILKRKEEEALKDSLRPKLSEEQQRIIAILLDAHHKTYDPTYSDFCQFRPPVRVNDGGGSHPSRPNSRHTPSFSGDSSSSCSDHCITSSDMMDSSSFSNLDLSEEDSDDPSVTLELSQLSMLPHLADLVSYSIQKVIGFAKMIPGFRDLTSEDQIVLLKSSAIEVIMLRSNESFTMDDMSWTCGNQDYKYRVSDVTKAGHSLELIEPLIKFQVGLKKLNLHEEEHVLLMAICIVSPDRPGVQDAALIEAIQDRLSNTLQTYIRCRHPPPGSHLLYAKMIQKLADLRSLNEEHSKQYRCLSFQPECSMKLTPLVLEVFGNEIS
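Measured by FP: displacement of SRC2-3 coactivator peptide from VDR by library compounds, following a two-hour ambient incubation.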
* marks the source's active call; other numbers are inactive results; ? = inconclusive; & = joins results of further samples; [ ] = dose if it differs, or a comment. % is set by controls: 0 for no effect and ±100 for the full control effect; potency is the fitted concentration of half-maximal effect. Not all compounds are listed; count on the stated rates, not on these rows.

SMILES	VDR inhibitor
CC(C)(C)OC(=O)N[C@@H](C(=O)OC(C)(C)C)c1ccc2ccccc2c1	0.3%
Cc1c(C)n(Cc2ccccc2)c2ncnc(NN)c12	96.5%[activator]
O=C(CN1CCCC1)Nc1cccc(Cl)c1Cl	0.3%
COc1ccc(OCc2nnc3n2N=C(c2ccc(Br)cc2)CS3)cc1	-10.8%
CCNC(=S)N/N=C(\C)c1cccc(C(F)(F)F)c1	-11.0%
O=C(NC1=NCCS1)C12CC3CC(CC(C3)C1)C2	25.1%
Cc1ncc(CN2CCCC(C(=O)Nc3ccc(-c4cccc(F)c4)cc3)C2)n1C (configuration not stated)	-10.2%
O=C(CCN1C(=O)c2ccncc2C1=O)Nc1cc(F)ccc1F	-0.9%
CCOC(=O)c1c(NC(C)=O)c2c3c(sc2n1Cc1nc(-c2ccccc2OCC)oc1C)CCCC3	-13.7%
COc1ccc(CCNC(=O)C/C(C)=N/NC(=O)Cc2cccc3ccccc23)cc1OC	1.8%
COc1ccccc1N(C)S(=O)(=O)c1ccc(C(=O)NCC(C)C)cc1	-4.2%
COCCC(=O)N1CCC(Oc2ccc(C(=O)NCCCC3CCCC3)cc2)CC1	13.6%
Nc1nc2ccc(C(=O)N3CCCCC3)cc2s1	-5.7%
CCOC(=O)[C@H]1[C@H]2COc3ccc(Br)cc3[C@H]2N2C(=O)CN(CCc3c[nH]c4ccccc34)C(=O)[C@@]12C	-1.1%
COc1ccc(CC(=O)NNS(=O)(=O)c2ccccc2[N+](=O)[O-])cc1OC	-21.5%
CCCc1nc(SCC(=O)Nc2cc(C)on2)c2ccccc2n1	-13.4%
Cc1ccc(OCC(=O)Nc2ccc(-c3nc4ccc(C)cc4o3)cc2)cc1	1.4%
CCCCC[C@H](O)/C=C/[C@H]1CCC(=O)[C@@H]1CCCCCCC(=O)N1CCCCC1CO (some centres not stated)	-6.0%
O=C(CNC(=O)c1cccs1)N=Nc1c(O)[nH]c2ccc([N+](=O)[O-])cc12	7.2%
O=C(Cn1ncc2c3ccccc3n(Cc3ccccc3)c2c1=O)NCCCN1CCOCC1	15.9%
O=C(CSc1oc(-c2cccs2)nc1S(=O)(=O)c1ccc(F)cc1)NCC1CCCO1 (configuration not stated)	-12.8%
Cc1ccc(Cl)cc1N1CCN(S(=O)(=O)c2c(C)noc2C)CC1	-1.6%
CCOC(=O)NC(CC(=O)O)c1ccc(OC)c(OC)c1 (configuration not stated)	1.1%
COc1ccc(NC(=O)Cn2c(=O)n(CCCC(=O)NCCc3ccc(C)cc3)c(=O)c3ccccc32)cc1Cl	1.3%
CC1(C)Cc2ccccc2C(=C(C#N)C#N)N1	-8.2%
O=C(Nc1nccs1)c1ccc(Cl)nc1	6.3%
CCCn1nc(NS(=O)(=O)c2ccccc2)c2cc3ccccc3nc21	10.2%
Cc1sc2ncnc(N3CCC(C(=O)NNC(=O)c4ccc(Cl)cc4)CC3)c2c1C	?
CC(C)n1c(=S)[nH]c2ccccc21	-8.2%
O=C(NCc1ccccc1)C1CCN(C(=O)Cc2ccccc2)CC1	5.2%
CC1CCC(NC(=O)c2ccc3nc[nH]c3c2)CC1 (configuration not stated)	-3.3%
CCN(CC)c1ccc(NS(=O)(=O)c2ccc(-c3cnc(C4CC4)o3)cc2)c(C)c1	11.4%
O=C(CS(=O)(=O)Cc1ccccc1)Nc1ccc2c(c1)OCO2	5.0%
O=C(CC(Nc1cccc(Cl)c1Cl)C(=O)OCC(=O)c1cccs1)c1ccccc1 (configuration not stated)	10.0%
Cc1ccccc1OCc1nnc(SCC(=O)N2c3ccccc3Sc3ccc(Cl)cc32)o1	3.0%
O=C(Cc1ccc(Cl)cc1Cl)NCc1cccnc1	-20.1%
COc1ccc(C(=O)N2CCC3(CCCN(c4ncccn4)C3)CC2)cc1	5.6%
COc1ccccc1C(=O)NCCC(=O)N1CC(C)OC(C)C1 (configuration not stated)	-3.9%
CCCCNC(=O)[C@H](Cc1c[nH]c2ccccc12)NC(=O)c1ccccc1Cl	3.3%
Cn1cc(CN2C[C@]3(C)C[C@H]2CC(C)(C)C3)c(-c2ccc3c(c2)OCCO3)n1	-6.2%
O=C(CCn1c(=S)[nH]c2ccccc2c1=O)NCC1CCCO1 (configuration not stated)	10.9%
CCOC(=O)c1cc(CC)sc1NC(=O)c1ccc(N2CCOCC2)c([N+](=O)[O-])c1	-1.7%
COC(=O)c1sccc1-n1cc(C#N)c(=O)n(C)c1=O	4.3%
COc1cc(NC(=O)c2cc3cccc(OC)c3o2)cc(C(=O)Nc2cccc(C(F)(F)F)c2)c1	-2.7%
O=C1OC(c2ccc3ccccc3c2O)(c2ccc3ccccc3c2O)c2ccccc21	?
COc1ccccc1OCc1nnc(SCC(=O)N2CCCCC2)n1-c1ccccc1	-4.6%
COC(=O)c1cc(S(=O)(=O)NCc2ccccc2OC)cn1C	-7.2%
Cc1onc(-c2ccccc2)c1C(=O)NNC(=O)c1ccccc1Br	-6.4%
COc1ccc2cc(C(=O)COC(=O)COc3ccc4c(C)cc(=O)oc4c3)ccc2c1	-20.5%
O=C(CSc1ccc2nnc(-c3cccnc3)n2n1)Nc1cccc(F)c1	-6.9%

(cont.)
SMILES	VDR inhibitor
CC(C)N(C(=O)[C@H]1C[C@H](CC(=O)NCC23CC4CC(CC(C4)C2)C3)C(=O)N2CCc3c([nH]c4cc(CCC(=O)N(C)C)ccc34)[C@]12C)C(C)C	-9.8%
N#Cc1cc2c(nc1SCC(=O)Nc1nccs1)CCCCC2	14.9%
CC(C)N=C(NS(=O)(=O)c1ccc(Br)cc1)c1ccc(Cl)cc1	1.3%
CCCCNC(=O)COC(=O)c1ccc(N(C)C)cc1	1.9%
COc1ccc(-n2c(CC3C(=O)N(C)c4ccc(C)cc43)nc3ccccc3c2=O)cc1 (configuration not stated)	1.7%
CN(C)S(=O)(=O)c1ccc(C(=O)Nc2nnc(SCC(=O)NCC3CCCO3)s2)cc1 (configuration not stated)	-25.1%
CCN(CC(=O)Nc1ccccc1OC)C(=O)Cn1cnc2ccccc2c1=O	-2.7%
O=C(CSc1nnc(CNc2cccc(Cl)c2)o1)OC1CCCCC1	13.4%
COc1ccc(CCNC(=O)CSc2nc3[nH]ncc3c(=O)n2-c2ccccc2Br)cc1OC	2.2%
CC[C@H](C)[C@H](NC(=O)[C@H](Cc1ccc(O)cc1)NC(=O)[C@@H]1CCCN1C(=O)[C@H](CCCN=C(N)N)NC(=O)[C@H](CCCN=C(N)N)NC(=O)[C@@H]1CCCN1C(=O)[C@H](CCCCN)NC(=O)[C@H](CC(N)=O)NC(=O)[C@H](CCC(N)=O)NC(=O)[C@H](Cc1ccc(O)cc1)NC(=O)[C@H](CC(C)C)NC(=O)[C@@H]1CCC(=O)N1)C(=O)N[C@@H](CC(C)C)C(=O)O	12.4%

A different layout for some results above:
SMILES | VDR inhibitor
CCN(CC(=O)Nc1ccccc1OC)C(=O)Cn1cnc2ccccc2c1=O | -2.7%
O=C(CSc1nnc(CNc2cccc(Cl)c2)o1)OC1CCCCC1 | 13.4%
CCCCNC(=O)COC(=O)c1ccc(N(C)C)cc1 | 1.9%

Remaining list, next part.
SMILES	VDR inhibitor
CN1/C(=C\C(=O)CSc2nnc(N)s2)C(C)(C)c2ccccc21	5.4%
O=C1Nc2ccc([N+](=O)[O-])cc2C1(O)N1CCCCC1 (configuration not stated)	7.6%
CCOc1ccc(C(=O)C(C)OC(=O)C2CCN(c3ccc(C(F)(F)F)cn3)CC2)cc1 (configuration not stated)	-4.8%
O=C(O)CCCCCNc1ncnc2ccc(Br)cc12	29.7%
CCCCC[C@H](O)/C=C/C=C\CCCCCCCCCC(=O)O	-2.4%
CCOC(=O)C1CCN(c2c(N3CCN(c4ccccc4OC)CC3)c(=O)c2=O)CC1	3.7%
Cc1ccc(CS(=O)Cc2ccc(C(=O)N3CCN(c4ccc(F)cc4)CC3)o2)cc1 (configuration not stated)	-0.5%
CCOC(=O)C(C)Sc1nnc(-c2ccccc2O)n1-c1ccc(C)cc1 (configuration not stated)	-9.4%
COC(=O)CCN(C(=O)c1c(C)oc2ncnc(N3CCOCC3)c12)c1ccccc1	12.3%
Cc1ccc(N(C)C(=O)CN(C)S(=O)(=O)c2ccc3c(c2)n(C)c(=O)c(=O)n3C)cc1	-4.6%

Continued; it opens with the 4 that closed the last part.
SMILES	VDR inhibitor
Cc1ccc(CS(=O)Cc2ccc(C(=O)N3CCN(c4ccc(F)cc4)CC3)o2)cc1 (configuration not stated)	-0.5%
CCOC(=O)C(C)Sc1nnc(-c2ccccc2O)n1-c1ccc(C)cc1 (configuration not stated)	-9.4%
COC(=O)CCN(C(=O)c1c(C)oc2ncnc(N3CCOCC3)c12)c1ccccc1	12.3%
Cc1ccc(N(C)C(=O)CN(C)S(=O)(=O)c2ccc3c(c2)n(C)c(=O)c(=O)n3C)cc1	-4.6%
CCOc1c(C)cnc2c1c(=O)n(Cc1cccc(Cl)c1)c(=O)n2C	7.9%
COc1ccccc1-n1c(SCC(=O)Nc2cc(C)on2)nc2c([nH]c3ccccc32)c1=O	-14.7%
CC(NC(=O)C(C)N1c2cccc3cccc(c23)S1(=O)=O)c1ccccc1 (configuration not stated)	13.8%
O=C(NCCCN1CCCC1=O)c1ccc(S(=O)(=O)Nc2ccccc2F)cc1	-7.4%
C[C@H](NC(=O)c1nc[nH]c1C(=O)N[C@@H](Cc1ccccc1)C(=O)OC(C)(C)C)C(=O)OCc1ccccc1	-11.1%
C/C(=N\Nc1ccc(S(N)(=O)=O)cc1[N+](=O)[O-])c1cccnc1	-26.2%
CCCc1nnc(NC(=O)c2cc(=O)c3ccccc3o2)s1	6.6%
O=C(CCN1C(=O)S/C(=C\c2ccccc2)C1=O)N1CCOCC1	-2.3%
O=C(NC(Cc1c[nH]c2ccccc12)C(=O)O)/C(=C\c1ccccc1)NC(=O)c1ccccc1 (configuration not stated)	-10.4%
COCc1cc(=O)[nH]c(Cc2c(Cl)cccc2Cl)n1	11.8%
C/C(=N\NC(=O)c1ccc(NS(=O)(=O)c2cccs2)cc1)c1ccc(C(C)(C)C)cc1	3.3%
CNc1ccc(-c2nc3ccccc3s2)cc1	11.2µM*
CC[C@@H](C)[C@H](CNC)NC[C@@H](Cc1cccc2ccccc12)NCCc1cccc(C(F)(F)F)c1	-25.5%
Cc1ccccc1Cn1c(=N)n(CC(=O)c2ccco2)c2ccccc21	7.7%
COc1ccc(-c2ccc(-c3noc(-c4ccccc4)n3)c(OC)n2)cc1	12.3%
COc1ccc2c(c1)c1c(c(=O)n(Cc3ccccc3)c(=O)n1CC(=O)Nc1ccc(C)cc1C)n2C	1.7%
COc1ccc(NC(=O)CN2C(=O)CSc3ccc(S(=O)(=O)N4CCC(C)CC4)cc32)cc1	16.5%
Cc1ccc(C2(C)NC(=O)N(CC(=O)Nc3ccc(-c4nc5ccc(C)cc5s4)cc3)C2=O)cc1 (configuration not stated)	-14.8%
CCc1ccc(OCC(=O)Nc2ccc(CN3CCCCC3)cc2)cc1	3.1%
COc1cccc(/C=C/C(=O)OCC(=O)Nc2cccc(S(=O)(=O)N3CCCCC3)c2)c1OC	-19.7%
CC(C)OC(=O)C(C(=O)OC(C)C)=C1SC=CS1	-3.0%
Cn1c(=O)n(Cc2ccco2)c(=N)c2c3c(sc21)CCC3	-0.6%
Cc1ccc2[nH]c(CCN(C)C)c(CN3CCOCC3)c2c1	-12.5%
O=C(c1ccc2nccnc2c1)N1CCN(c2cccc(C(F)(F)F)c2)CC1	4.2%
O=C(CN1CCN(c2ccccn2)CC1)N1CCc2ccccc21	-4.1%
CC1=C([N+](=O)[O-])C(c2ccc3c(c2)OCO3)N(C)C(=O)N1C (configuration not stated)	?
c1ccc(-c2cn3ccccc3n2)cc1	1.8%
Fc1ccc(Nc2nc(NCc3ccco3)nc3nccnc23)cc1	-7.4%
Cc1noc(C)c1S(=O)(=O)N(CC(=O)NCCc1ccc(Cl)cc1)c1ccc(C(C)C)cc1	-2.9%
CNC(=O)c1c(O)c2cccc3c2n(c1=O)CC3	-4.6%
CS(=O)(=O)N1CCC(C(=O)Nc2ccccc2Sc2ccccc2)CC1	-5.2%
Cc1cc(NC(=O)c2ccc(NC(=O)CC(C)C)cc2)no1	8.6%
COc1ccc(OCC(=O)Nc2ccccc2Cl)cc1	-19.6%
COc1ccc(-c2c(-c3ccc4c(c3)OCO4)noc2C)cn1	5.5%
CC(=O)c1ccccc1NC(=O)CSc1nc2ccccc2c(=O)n1CCCN1CCOCC1	11.6%
C=CC[C@](C)(O)c1ccccc1	5.0%
NC(=O)NC(=O)COC(=O)CCSc1ccccc1	20.7%
CCOC(=O)N1CCC(N2Cc3cccc(C(=O)Nc4cccc(F)c4)c3C2=O)CC1	3.4%
NC(=O)C1CCN(c2ccc([N+](=O)[O-])cc2Cl)CC1	-4.5%
CN(C)CCCN(Cc1cc2cc3c(cc2[nH]c1=O)OCCO3)C(=O)NC1CCCCC1	-3.1%
Cc1cc(F)ccc1NC(=O)C(C(C)C)N1Cc2ccccc2C1=O (configuration not stated)	7.0%
COc1ccc(CC(=O)N/N=C/c2cccn2-c2ccc([N+](=O)[O-])cc2)cc1OC	11.4%
C[C@H](CO)N1C[C@H](C)[C@@H](CN(C)S(=O)(=O)c2ccccc2)Oc2ccc(NC(=O)Nc3ccc4c(c3)OCO4)cc2C1=O	20.1%
CCc1ccc(-n2cccc2/C=C2/C(=N)N3C(=NC2=O)SN=C3S(C)(=O)=O)cc1	?
COc1ccc(N2CCN(C(=O)CCNC(=O)c3ccccc3)CC2)cc1	11.1%
O=C1c2ccccc2C(O)N1c1ccccc1 (configuration not stated)	1.4%
O=C(NC1CCCCC1)C1CCCN1C(=O)NCc1ccccc1 (configuration not stated)	?
CC(=O)OC[C@H]1O[C@@H](n2ncc(=O)[nH]c2=O)[C@H](OC(C)=O)[C@@H]1OC(C)=O	20.9%&3.3%

Exported in markdown: entries from further up.
| canonical_smiles | VDR inhibitor |
| --- | --- |
| CC(NC(=O)C(C)N1c2cccc3cccc(c23)S1(=O)=O)c1ccccc1 (configuration not stated) | 13.8% |
| CC[C@@H](C)[C@H](CNC)NC[C@@H](Cc1cccc2ccccc12)NCCc1cccc(C(F)(F)F)c1 | -25.5% |
